HSD17B inhib – inhibitors of human HSD17B10 dehydrogenase; Q99714; recombinant HSD17B10, NADH fluorescence kinetic; many of its hits are not listed in these tables; Potency, µM (doses to about 57.1 µM), inactives show at the top dose activity change, negative = inhibition, hits mostly inhibitors; 7.6% of 75,000 active; active means well fitted inhibition curve with a large enough effect; inconclusive means small, poorly fitted or top-dose-only effect; inactive means no such curve, though single readings can be large or run the other way;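 further: the protocol describes HADH2 (HSD17B10) and not the HSD17B4 of the title; nearly all actives have a fitted effect of over 70% in size; most hits overshoot -100% by far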
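Enzyme plus compound, 15 min room temperature; substrate mix added (NAD+ 1 mM, beta-hydroxybutyryl-CoA 90 uM final); plates read kinetically for NADH fluorescence. HADH2 was His-tagged, E. coli-derived, 20 nM.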
Active calls of the source: *; u = inconclusive; & = joins results of further samples; [ ] = remark or other dose. On the % scale 0 is the no-effect control and ±100 the full control effect; potency means the concentration at half of the fitted maximal effect. These rows are one share of the data. The share of hits here may be higher or lower than overall.

The opening 5 entries as a preview:
smiles,HSD17B inhib
CCON=C1C(C)(C)C(C)(C)C(C)(C)C1(C)C,4%[11.4 µM]
COC(=O)c1c(C)[nH]c(C(C)=O)c1C,0%
c1ccc(N2CCN(c3nc4cc5c(cc4s3)OCCO5)CC2)cc1,-9%
O=C(CSc1nc2cc3c(cc2c(=O)n1CCC1=CCCCC1)OCO3)NCc1ccco1,6%
Cc1ccc(-c2csc3ncnc(-n4nc(C)cc4N)c23)cc1,8%

The list itself (from the top)
smiles,HSD17B inhib
CCON=C1C(C)(C)C(C)(C)C(C)(C)C1(C)C,4%[11.4 µM]
COC(=O)c1c(C)[nH]c(C(C)=O)c1C,0%
c1ccc(N2CCN(c3nc4cc5c(cc4s3)OCCO5)CC2)cc1,-9%
O=C(CSc1nc2cc3c(cc2c(=O)n1CCC1=CCCCC1)OCO3)NCc1ccco1,6%
Cc1ccc(-c2csc3ncnc(-n4nc(C)cc4N)c23)cc1,8%
CCOC(=O)C1CCN(C(=O)c2ccccc2NC(C)=O)CC1,5%
O=S(=O)(NCC(c1cccnc1)N1CCN(c2ccc(F)cc2)CC1)c1cc(F)ccc1F (centres undefined),-2%
COC(=O)Cn1c(CCS(=O)(=O)c2ccc(C)cc2)nc2ccccc21,5%
CSc1ccc(S(=O)(=O)NC2CCCCCC2)cc1,-10%
CCCn1c(-c2ccc(F)cc2)nc2c(N3CCN(CCn4ccnc4)CC3)nc(C)nc21,u
O=C(Cn1cnc2c(nnn2-c2ccccc2)c1=O)NCCc1ccccc1,-16%
CC1CCN(C(=O)C(Cc2ccccc2)NS(=O)(=O)c2ccc3c(c2)oc(=O)n3C)CC1 (centres undefined),7%
Cc1ccc(NC(=O)c2cc(-c3cccc(O)c3)on2)cc1C,-3%
COc1cc2c(cc1OC)C1(NCC2)C(=O)Nc2ccccc21 (centres undefined),4%
Nn1c(SCC(=O)Nc2ccc(F)c(F)c2)nnc1C1CCCCC1,5%
COc1cc(OC)c(NC(=O)Cn2cccc2)cc1Cl,4%
CC1(C)N([O-])C(c2ccccc2)=C[N+](=O)C1(C)C,-27%
O=C(CCc1nc2ccccc2c(=O)[nH]1)OCc1nnc(-c2ccccc2)o1,-10%
Cc1nc(C)c(C(=O)C2=C(O)C(=O)N(CCCN(C)C)C2c2ccco2)s1 (centres undefined),7%
O=c1[nH]c2ccccc2cc1-c1noc(-c2cccnc2)n1,7.9µM*
CCc1nnc(NC(=O)c2ccc(-c3cccc(C(F)(F)F)c3)o2)s1,u
Cc1ccc(-n2nc(C)c3c(C)c(CCC(=O)NCc4ccco4)c(C)nc32)cc1,32µM*
Cc1sc2ncnc(NCCCO)c2c1C,5%
CCOC(=O)C1CCN(S(=O)(=O)c2ccc3c(c2)CCCN3C(C)=O)CC1,8%
Cc1nnc(C)n1/N=C/c1ccc2c(c1)OCCO2,-1%
Cc1ccc(-n2nc(C)c3c2OC(N)=C(C#N)C3c2ccncc2)cc1 (centres undefined),-9%
O=C(NCc1ccc2c(c1)OCO2)C1CCC(CNc2c(N3CCCC3)c(=O)c2=O)CC1 (centres undefined),1%
N#CC1=C(N)SC2(CCCCC2)SC1c1ccccc1 (centres undefined),20µM*
CCCN(CCO)Cc1ccc(Cl)c(Cl)c1,1%
O=C(NCC1CCCO1)C1CCC(=O)N1CCc1ccccc1 (centres undefined),-5%
O=C(COc1ccc(Cl)cc1)N1CCN(C(=O)c2cccc(F)c2)CC1,3%
COc1ccccc1CNC(=O)CN(C)CC(=O)Nc1cccc(F)c1,10%
Nc1cccc(NC(=O)c2cccs2)c1,2%
Cc1ccc(O)c(NC(=O)c2ccco2)c1,2%
COC(=O)C(NC(=O)C(C)Oc1ccccc1)C(C)C (centres undefined),10%
CN(C)CCCNc1ncnc2nc[nH]c12,1%[11.4 µM]
O=C(Nc1nc(-c2ccccc2)ns1)c1cccs1,12%
CC(=O)N(Cc1cc2c(C)cc(C)cc2[nH]c1=O)C1CCCCC1,u
O=C(NC(=O)c1ccc(Cl)cc1)Nc1cc(N2CCCCC2)ncn1,11%
CCN(CC)C(=O)Cn1cnc2ccccc2c1=O,4%
CC(C)N1CCc2c(sc(NC(=O)c3ccc(S(=O)(=O)N4CCOCC4)cc3)c2C#N)C1,-14%
O=C(C1CCN(C2CC(=O)N(Cc3ccccc3)C2=O)CC1)N1CCCCCC1 (centres undefined),-8%
Cc1c(N/C=C/C(=O)c2cccs2)c(=O)n(-c2ccccc2)n1C,-17%
CCOC(=O)c1c(C)[nH]c(C)c1C(=O)CSc1nc(N)cc(N)n1,-2%
Cc1nnc(NCCc2ccccc2)n(N)c1=O,8%
CC(C)C(NC(=O)c1ccc(Cl)cc1)C(=O)NC1=NCCS1 (centres undefined),-5%
O=C(OCC(=O)N1CCN(C(=O)c2ccco2)CC1)c1cc(-c2ccc(F)cc2)nc2ccccc12,32µM*
Cc1ccc(-n2nc3c(c2NC(=O)c2ccc4c(c2)OCO4)CSC3)c(C)c1,u
N#Cc1cccc(NC(=O)N2CCC3(CC2)CCN(C(=O)c2cccc(F)c2)CC3)c1,0%
CCOC(=O)c1c(CN2CCN(C)CC2)oc2ccc(OC)cc12,-24%

Reprinted from the listing for reference:
smiles,HSD17B inhib
N#Cc1cccc(NC(=O)N2CCC3(CC2)CCN(C(=O)c2cccc(F)c2)CC3)c1,0%
CCOC(=O)c1c(CN2CCN(C)CC2)oc2ccc(OC)cc12,-24%

Continued:
smiles,HSD17B inhib
CCCOc1ccc(-c2nc(N)n[nH]2)cc1,u
CCCC(=O)N(CCc1ccccc1)Cc1nc2ccccc2c(=O)[nH]1,7%
Cc1cccn2c(=O)c3cc(C#N)c(=NC(=O)c4ccc5c(c4)OCO5)n(CC(C)C)c3nc12,-29%
CC(=O)NCCOc1cccc2ccccc12,-14%
N#C/C(=C1\CCCN1)c1nc(-c2ccccc2)cs1,-10%
Cc1ccc2nc(NC(=O)Cn3cc4c(n3)CCCCC4)sc2c1,-23%
CCOC(=O)C(CC)Sc1nnc2n1C(C)(C)Cc1ccccc1-2 (centres undefined),0%
CC(C)C(OC(=O)c1ccco1)C(=O)NCc1cccs1 (centres undefined),0%
CCOCCCNC(=O)C(c1ccc(C)cc1)N(Cc1ccc2c(c1)OCO2)C(=O)c1cnccn1 (centres undefined),4%
Cc1ccc(Cn2nc(C)c(NC(=O)c3cc(-c4ccco4)on3)c2C)cc1,-14%
O=C(c1cccc(S(=O)(=O)N2CCOCC2)c1)N1CCCC1,5%
O=C(NCC1COc2ccccc2O1)C1CCC(CNc2c(N3CCCCC3)c(=O)c2=O)CC1 (centres undefined),0%
O=C(CC1CCCC1)Nc1nnc(C2CC2)s1,5%
O=C(CSc1nnc(-c2ccncc2)n1CC1CCCO1)NCc1ccccc1 (centres undefined),3%
O=c1c2ccccc2oc2nc(-c3ccco3)n(Cc3ccccc3)c(=O)c12,-5%
COc1ccc(C2C=C(C)Nc3nc(SC)nn32)cc1 (centres undefined),25µM*
CCOC(=O)COc1nc(OC)nc(N2CCOCC2)n1,1%
CCOC(=O)Cc1csc(NC(=O)c2ccc(S(=O)(=O)N3CCCCC3)cc2)n1,-2%
Cc1ccc(N2CCN(c3cc(C)nc4nc(C)nn34)CC2)c(C)c1,-1%
CC(C)n1nc(C(=O)Nc2nc3ccc(S(C)(=O)=O)cc3s2)c2ccccc2c1=O,2%
CCCCC(=O)Nc1ccc(N2CCN(C(=O)CC)CC2)cc1,7%
O=c1c2[nH]c3ccccc3c2ncn1CCN1CCNCC1,0%
Cn1nnnc1SCC(=O)N1c2ccccc2Sc2ccccc21,1%
COc1ccc(C)cc1-n1nnnc1SCC1CCCCO1 (centres undefined),3%
CC(C)OC(=O)c1cc(NC(=O)C2C3CCC(O3)C2C(=O)O)cc(C(=O)OC(C)C)c1 (centres undefined),u
Cc1ccc(NS(=O)(=O)c2cn(C)cn2)cc1,-1%
O=C1CCCCCN1C(=O)c1cccc(C(=O)N2CCCCCC2=O)c1,3%
O=C(O)CCC(=O)OCC1CCCO1 (centres undefined),6%
COc1ccc(S(=O)(=O)N2Cc3ccccc3CC2C(=O)Nc2nccs2)cc1OC (centres undefined),-1%
CCCn1c(-c2ccc(OC)cc2)nc2nc3ccccc3nc21,3.2µM*
Cc1cc(C)c2c(N)c(C(=O)N3CCN(c4ncccn4)CC3)sc2n1,25µM*
COc1ccc(CCCc2nnc(SCC(=O)Nc3nc(C)cs3)n2C)cc1,0%
COc1ccc(C2=C(O)C(C)N(c3ccccc3)C2=N)cc1OC (centres undefined),3%
Cc1cc(C)nc(NS(=O)(=O)c2ccc(Br)s2)c1,-15%
O=C(O)[C@@H]1[C@@H](C(=O)Nc2ncccn2)[C@@H]2C=C[C@@H]1O2,4%[11.4 µM]
CCOC(=O)c1ccc2c(c1)nc(SCC(=O)c1ccco1)n2CC,-24%
Cc1cc(C)n2nc(SCN3C(=O)c4ccccc4C3=O)nc2n1,-16%
COc1ccc(NCc2ccc3c(c2)OCO3)cc1Cl,-12%
CN(C)c1oc(-c2ccccc2Cl)nc1S(=O)(=O)c1ccccc1,0%
CCOC(=O)CSc1nc2cc(C)ccc2cc1C#N,u
CNC(=O)c1[nH]cnc1C(=O)Nc1cccc(OC)c1,1%
c1cc(Nc2ncnc3sccc23)cc(-c2nnc3n2CCCCC3)c1,4%
O=S(=O)(/C=C/c1ccccc1)NCCc1ccccn1,3%
CC(C)(C)NC(=O)CSc1nnc(-c2ccccn2)n1-c1ccccc1,2%
CS(=O)(=O)N(CC(=O)N1CCOCC1)c1ccc2c(c1)OCO2,-8%
COCCn1c(SCC(=O)Nc2cccc(C(=O)OC)c2)nc2ccccc2c1=O,6%
Cc1ccc(C)c(S(=O)(=O)NCc2ccc(C(=O)N3CCN(C)CC3)cc2)c1,8%
O=C(Nc1cccnc1)c1ccc(COCC(F)(F)F)cc1,3%
COc1ccc(S(=O)(=O)Nc2ccc(O)c3ccccc23)cc1,25µM*
Cc1ccc2c(c1)c(C)c(C)n2CC(O)Cn1nc(C)cc1C (centres undefined),32µM*

Next structures follow.
smiles,HSD17B inhib
O=C(Nc1cc(N2CCOCC2)ncn1)NC1(C(F)(F)F)Oc2ccc(Cl)cc2O1 (centres undefined),u
COc1ccc2[nH]cc(C(=O)CN3CCN(C4CCCCC4)CC3)c2c1,3%
CC1=CC(C)C(/C=N/n2cnnc2)C(C)C1 (centres undefined),16%
COC(=O)c1ccc(C)c(N(CCO)CCO)c1,1%
CCOc1ccccc1N1CC(O)=C(c2nc3ccccc3s2)C1=N,u
Cc1nn(CCC(=O)O)c2nc(-c3cccnc3)cc(C(F)(F)F)c12,25µM*
Cc1ccc(S(=O)(=O)N[C@H]2COC(=O)C/C=C\[C@@H](C)COC(=O)C/C=C\[C@@H]2C)cc1,-3%&4%[11.4 µM]
CC12CC(NC(=O)N1c1cccc(C(=O)N3CCN(c4ccccc4)CC3)c1)c1ccccc1O2 (centres undefined),9%
CCN1CCN(C(=O)CCN2C(=O)COc3ccc(C)cc32)CC1,10%
CCn1c(CCNC(=O)c2cccs2)nnc1SCC(=O)c1ccc(OC)cc1,u
O=C(c1csnn1)N1CCC2(CCCN(c3ccccc3)C2)CC1,1%
COc1cc(C(=O)N2CCN(C(=O)C(Cc3cc(C)ccc3C)NC(C)=O)CC2)cc(OC)c1OC (centres undefined),-1%
CN1CCN(C(=O)CCC(=O)c2ccc(F)cc2)CC1,7%
CCSC1=C(C#N)C2(CCCCC2)C(C#N)=C(N)N1,-4%
CCOCCCNC(=O)NC12CC3CC(CC(C3)C1)C2,1%
O=C(O)c1ccc(-n2nc(C(F)(F)F)c3c2-c2ccoc2CC3)cc1,-20%
CCCC(c1nnnn1C(C)(C)CC)N1CCN(C2CCCC2)CC1 (centres undefined),0%
Cc1cccc(CNc2ncnc3ccc(-c4ccc(C(=O)N(C)C)cc4)cc23)c1,32µM*
CC(C)C[C@H](NC(=O)NCCc1ccc(Cl)cc1)C(=O)O,-4%
O=S(=O)(Cc1ccc(Cl)cc1)NCC1CCCO1 (centres undefined),16%
O=C(CSc1nnc(Cc2cc(=O)[nH]c(=O)[nH]2)n1-c1ccc(F)cc1)NC1CCCC1,2%
c1ccc(-n2cnnc2SCc2cn3ccccc3n2)cc1,-2%
Cc1cc2c(s1)c1cnn(Cc3ccccc3F)c(=O)c1n2C,-4%
CC(=O)OCC1OC(C#CC2=CCCCC2)C=CC1OC(C)=O (centres undefined),-3%[11.4 µM]
Cn1c(=O)c2c(ncn2Cc2ccc(Cl)c(Cl)c2)n(C)c1=O,6%
COc1ccc(/C=N/n2c(C)nnc2C)c(OC)c1OC,-1%
CCN1CCN(C(=O)CN(c2cc(OC)ccc2OC)S(C)(=O)=O)CC1,2%
Cc1c(Cl)cccc1NC(=O)CSc1nnc(CCNC(=O)OC(C)(C)C)o1,4%
COc1ccc(-c2nnn(CC(=O)c3ccc4c(c3)OCCO4)n2)cc1OC,-26%
CCOC(=O)CCN1C(=O)[C@H]2[C@H]3[C@H](O)[C@H](O)C/C(=N/NC(=O)OCC)[C@@H]3CC[C@@H]2C1=O,9%[11.4 µM]
O=C(NCCSCc1ccco1)c1ccc(CN2CCOCC2)cc1,3%
O=C(NCc1ccc(F)cc1)c1ccc(CS(=O)(=O)Cc2ccccc2F)o1,-4%
